AmpC inh no det = inhibitors of E. coli AmpC beta-lactamase without detergent | P00811 | AmpC nitrocefin hydrolysis, absorbance 480 nm, no detergent; potencies from a single point are estimates | Potency, µM (titrated, usually from 28.7 µM), without a hit: at the highest dose activity change, negative = inhibition | 1.8% of 71,000 active | AID 585; active = falling curve, for most hits resting on a single point; inconclusive = weak or doubtful change; inactive = flat or rising curve; also: % of control where 0% means no effect; about half of the hits show no inhibition at the top dose; a quarter of the inactives give rising signals
Target sequence (P00811 whole entry, looked up): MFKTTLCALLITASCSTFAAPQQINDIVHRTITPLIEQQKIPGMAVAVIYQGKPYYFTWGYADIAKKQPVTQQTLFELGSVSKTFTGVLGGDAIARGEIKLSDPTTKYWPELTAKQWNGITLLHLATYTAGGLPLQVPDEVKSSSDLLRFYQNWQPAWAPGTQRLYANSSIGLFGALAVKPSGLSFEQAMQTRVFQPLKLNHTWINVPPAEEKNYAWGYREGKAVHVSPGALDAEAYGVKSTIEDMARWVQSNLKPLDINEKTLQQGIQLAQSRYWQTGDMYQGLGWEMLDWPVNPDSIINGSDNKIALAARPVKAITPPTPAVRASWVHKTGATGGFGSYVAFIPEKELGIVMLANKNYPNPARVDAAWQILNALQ
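AmpC in 20 mM phosphate buffer pH 7.0 was preincubated 15 min at room temperature with compounds. Nitrocefin (800 uM stock) was then added and hydrolysis followed at 480 nm every 20 s for 4 min.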
* marks the source's active call; other numbers are inactive results; ? = inconclusive; [ ] = dose if it differs, or a comment. Potency is read from the fitted curve at half-maximal effect. These rows are one share of the data; the hit share may differ from the screen's.

SMILES	AmpC inh no det
CCCC/C=C/C(NC(=O)c1ccc(-c2ccccc2)cc1)c1ccccc1 (centres undefined)	?
CCn1c(SCC(=O)Nc2cccc(C)n2)nnc1-c1ccco1	8%
O=C(CN(C(=O)CCC(=O)Nc1nccs1)c1ccc2c(c1)OCO2)NCC1CCCO1 (centres undefined)	63%
CC(C)(C)n1nnnc1C(c1ccc2ncccc2c1)N1CCSCC1 (centres undefined)	37%
COc1ccccc1C(=O)Nc1c(C)n(C)n(-c2ccccc2)c1=O	2%
Nc1ccc(-c2ccc(N)cc2)cc1	-8%
NS(=O)(=O)c1ccc(NC(=O)CCC2CCCCC2)cc1	7.9µM*
CCOC(=O)CCn1nnc(N)n1	-3%
COc1ccc(OC)c(C2C(C(=O)c3cc4ccccc4o3)=C(O)C(=O)N2c2cc(C)on2)c1 (centres undefined)	-18%
COc1ccc(N(Cc2cc3cc(OC)ccc3[nH]c2=O)S(C)(=O)=O)cc1	-9%
O=C(NC12CC3CC(CC(C3)C1)C2)N1CCC(O)CC1	14%
Cc1cc(C(=O)NCCCc2ccccc2)no1	-3%
COc1cc(C(=O)NCc2cn3ccsc3n2)cc(OC)c1OC	0%
COC(=O)CSc1nnc2n1C(C)(C)Cc1ccccc1-2	9%
CCOC(=O)CSc1nnc([C@H](CC(C)C)NC(=O)OC(C)(C)C)o1	25%
COC(=O)CC1(Cc2ccccc2)C(=O)NC(=O)NC1=O	0%
CCCCN(C)C(=O)C(Cc1ccccc1)NS(=O)(=O)c1ccc2c(c1)CCC(=O)N2 (centres undefined)	4µM*[single pt active]
COCC(=O)N1CCC2(CC1)CCN(c1ccncc1)CC2	-4%
CCOC(=O)c1c[nH]c2c(Cl)ccc(Cl)c2c1=O	3%
COCCCn1c(=S)[nH]c2ccc(N3CCOCC3)cc2c1=O	1%
CCc1ccc2[nH]c(=O)c(C(c3nnnn3Cc3ccc(OC)cc3)N3CCOCC3)cc2c1 (centres undefined)	86%
COC(=O)[C@@]1(Cc2ccc(F)cc2)[C@H]2c3cc(C(=O)N4CCCC4)n(Cc4cc(F)cc5c4OCOC5)c3C[C@H]2CN1C(=O)c1ccccc1	106%
CN(C)CCCN1C(=O)C(=O)/C(=C(/O)c2ccc3c(c2)OCO3)C1c1cccnc1 (centres undefined)	1%
CC(=O)NC1CC2CCC(C1)N2 (centres undefined)	-8%
Cc1cc(SCc2ccccc2)nc(=O)[nH]1	-16%
COc1ccc(-c2ccc(NCCC3=CCCCC3)nn2)cc1OC	33%
COC(=O)N1CCC[C@@]2(CCN(C(c3ccccc3)c3ccccc3)C2)C1	73%
Cc1c(Cl)ccc2c1NC(=O)[C@]21N[C@@H](CCC(N)=O)[C@H]2C(=O)N(c3ccc(F)cc3)C(=O)[C@H]21	8%
CCC(C)NC(=O)c1c(N)n(CC2CCCO2)c2nc3ccccc3nc12 (centres undefined)	150%
Cc1ccc(C(=O)N2CCN(C(=O)CN3CCOCC3)C2)cc1	13%
CCOC(=O)c1snc(C(=O)NC2CCCCC2)c1N	15%
CCOc1ccccc1C(=O)N(Cc1cccs1)C1CCS(=O)(=O)C1 (centres undefined)	25%
Cc1cc(CNC(=O)[C@H](C)[C@H]2C[C@]2(C)[C@H](NC(=O)OCc2ccccc2)c2ccccc2)nn1C	140%
O=C(CN1C(=O)CSc2ccccc21)NC1CCCC1	-7%
COc1ccccc1N1CCN(C(=O)C2CCN(S(=O)(=O)c3ccc(F)cc3)CC2)CC1	121%
CC1(C)NC(=O)N(CC(O)CN2CCCC2)C1=O (centres undefined)	-6%
CCC(C)(C)n1nnnc1C(c1cc2ccc(OC)cc2[nH]c1=O)N1CCc2ccccc21 (centres undefined)	60%
O=C1c2ccccc2N2C(=O)c3ccccc3C2N1O (centres undefined)	-6%
Cc1cccc(Cn2c(N(C)Cc3ccccc3)nc3c2c(=O)[nH]c(=O)n3C)c1	65%
COc1ccc(Nc2ncc(C(=O)N3CCC4(CC3)OCCO4)c3ccccc23)cc1	58%
Nc1ccc([N+](=O)[O-])c(N)c1	-15%
Cc1cc(Cl)c(S(=O)(=O)N2CCN(c3ccc(F)cc3)CC2)cc1OCC(N)=O	30%
CC(C)[C@H](NC(=O)OC(C)(C)C)c1nnc(SCC(=O)Nc2ccc(Br)cc2)o1	33%
Cc1ncc(CO)c(CO)c1O	2%[12.8 µM]
CCC(OC(=O)c1cccs1)C(=O)NCc1ccc2c(c1)OCO2 (centres undefined)	-3%
O=S(=O)(NCCc1ccccn1)c1cccs1	0%
Cc1cnc(CNc2ncnc3ccc(-c4cccc(C#N)c4)cc23)cn1	-21%
O=S(Cc1ccc(Cl)cc1)CC(O)COCc1ccc(Cl)cc1 (centres undefined)	68%
COc1ccc(-n2c(Cc3cccn3C)nnc2SCC(=O)Nc2ccc3c(c2)OCCO3)cc1	60%
Cn1c(=O)c2c(nc(NCCO)n2CCc2ccccc2)n(C)c1=O	4%
CCCN1CCN(CCCNC(=O)Cn2nc(-c3ccc(C)cc3)ccc2=O)CC1	12%
Cc1oc(-c2ccccc2F)nc1CN1CCC(C(=O)NCc2cccnc2)CC1	3%
Cc1cc(NS(=O)(=O)c2ccccc2)cc(Cl)c1O	-5%
CSc1nc(-c2ccccc2)nc(SC)c1C(C)=O	-2%
COc1ccc(N(C(=O)c2ccc(S(=O)(=O)N3CCOCC3)cc2)C2C=CS(=O)(=O)C2)cc1 (centres undefined)	33%
CS(=O)(=O)Nc1ccc(C(=O)NCc2ccc3c(c2)OCO3)cc1	1%
CCOc1cc2[nH]c(=S)n(CCCN3CCN(C)CC3)c(=O)c2cc1OCC	11%
Cc1cc(OC(=O)c2ccco2)c2c3c(c(=O)oc2c1)CCC3	-8%
NNC(=O)c1ccc[n+](CCc2ccccc2)c1	4%[5.75 µM]
Nc1nncn1C(=O)c1c(Cl)cccc1Cl	-10%

Next section.
SMILES	AmpC inh no det
O=C(c1ccco1)N1CCN(c2ccc(Cl)c(Cl)c2)CC1	62%
COc1cccc(C(=O)Nc2ccc(NC(C)=O)cn2)c1	-9%
CCCOc1ccc(-c2nnn(CC(=O)c3ccc4c(c3)OCCO4)n2)cc1	-14%
COc1ccccc1N1CCN(C[C@@H]2CN3C(=O)N(C)c4ccccc4C3=N2)CC1	88%
CCCOc1ccc2oc(=O)c3c(c2c1)CCCN3C(=O)CN1CCN(C(=O)c2ccco2)CC1	141%
COCCn1c(SCC(=O)Nc2cccc(OC)c2)nnc1-c1ccccc1	19%
O=C(O)CSc1nnc(Cc2ccccc2)n1-c1ccccc1	-3%
Cc1nn(C(=O)c2ccco2)c(C)c1CN1C(=O)c2ccccc2C1=O	38%
Cc1ccc(C(=O)CCNc2ccc(F)c(Cl)c2)o1	-3%
CC(C)N(C(=O)C1CC(=O)OC12CCCCC2)C(C)C (centres undefined)	12%
Cc1ccc(C)c(OCCCC(=O)O)c1	50%
COc1ccc2cc(CCNC(=O)C(C)C)c(=O)[nH]c2c1	24%
COCc1nnc(NC(=O)CC(C)c2ccccc2)s1 (centres undefined)	2%
O=C(NCc1ccco1)c1cccn2c(=O)c3sccc3nc12	49%
COc1cc(OC)c(OC)cc1CN1CCN(c2ccccc2OC)CC1	-2%
Cc1cc(NC(=O)C2C3C(=O)N(CCC(C)C)C(C(=O)NCc4ccccc4)C34C=CC2(C)O4)no1 (centres undefined)	51%
CCOC(=O)N1CCN(C(=O)CSCc2nc(-c3ccccc3F)oc2C)CC1	88%
CNC(=O)C1CC(=O)N(Cc2ccc3c(c2)OCO3)C(=Nc2ccc(F)cc2)S1 (centres undefined)	72%
COc1ccc2c(c1OC)C(=O)N(c1nccs1)C2	-5%
CC(=O)Nc1c(C(=O)C2CC2)oc2ccccc12	5%
COc1ccc2c(CC(=O)OCC(=O)Nc3ccc4c(c3)OCO4)coc2c1	-9%
Cc1ccc(-n2c(SCC(=O)NCC3CCCO3)nc3n[nH]c(C)c3c2=N)cc1Cl (centres undefined)	146%
O=C(Nc1cccc2ccccc12)N1CCN(Cc2ccccc2)CC1	80%
CCn1nc(CC(=O)Nc2nnc(CC(=O)N3CCCCC3)s2)c2ccccc2c1=O	11%
C=CCSc1ncccc1C(=O)NCc1ccccc1	-6%
CC(C)(O)c1cc(=O)sc2nc3ccccc3n12	8%
Cc1ccc(CNC(=O)CCc2nc3ccccc3c(=O)[nH]2)cc1	-4%
COc1ccc(N2CC(O)=C(c3nc(C)cs3)C2=N)cc1	-3%
COc1cc(S(=O)(=O)NCC2COCCO2)ccc1-n1cnnn1 (centres undefined)	2%
CC(C)(C)SCCNC(=O)CN(c1ccc(F)cc1)S(C)(=O)=O	26%
CC1CCN(C(=O)C2CCN(CCCc3ccccc3)CC2)CC1	127%
Cc1ccc(C(=O)n2cnnc2N)cc1C	-1%
Cc1cc(=O)oc(C)c1C(=O)NCC1COc2ccccc2O1 (centres undefined)	23%
COc1cccc(Cn2nnc(C(=O)Nc3cc(Cl)ccc3OC)c2N)c1	-22%
CCOC(=O)c1[nH]c(C)c(C(=O)NCCN2CCOCC2)c1C	-12%
CC1=C(C(=O)OCCOC(C)C)C(c2cccnc2)C2=C(CCCC2=O)N1 (centres undefined)	12%
COC(=O)c1sc(=S)n(-c2cccc(Cl)c2)c1N	-4%
CC(C)[C@H](NC(=O)OC(C)(C)C)c1nnc(S(=O)(=O)Cc2c(F)cccc2Cl)o1	1.3µM*
CCOC(=O)Cn1c(=O)c2c(nc3n2CCN3c2ccc(C)cc2)n(C)c1=O	76%
CCOC(=O)CCc1c(C)c2ccc(O)cc2oc1=O	-12%
C=C(C)C(=O)OCCCCCC	-6%
CCCCCCN(C(=O)CCCCCN1C(=O)NC(c2cccc([N+](=O)[O-])c2)C(C(=O)OCc2ccccc2)=C1C)C(C(=O)NCCCC)c1ccc(OCC(=O)OC)c(C(=O)OC)c1 (centres undefined)	39%
O=C(Cn1ccccc1=O)c1cccs1	-4%
CC(=O)c1c[nH]c2ccc(C)cc2c1=O	-7%
O=c1c(Cc2ccccc2)c(O)nc2n1CCS2	2%

Molecules from the list above with fluorine:
SMILES	AmpC inh no det
COC(=O)[C@@]1(Cc2ccc(F)cc2)[C@H]2c3cc(C(=O)N4CCCC4)n(Cc4cc(F)cc5c4OCOC5)c3C[C@H]2CN1C(=O)c1ccccc1	106%
Cc1c(Cl)ccc2c1NC(=O)[C@]21N[C@@H](CCC(N)=O)[C@H]2C(=O)N(c3ccc(F)cc3)C(=O)[C@H]21	8%
COc1ccccc1N1CCN(C(=O)C2CCN(S(=O)(=O)c3ccc(F)cc3)CC2)CC1	121%
Cc1cc(Cl)c(S(=O)(=O)N2CCN(c3ccc(F)cc3)CC2)cc1OCC(N)=O	30%
Cc1oc(-c2ccccc2F)nc1CN1CCC(C(=O)NCc2cccnc2)CC1	3%
Cc1ccc(C(=O)CCNc2ccc(F)c(Cl)c2)o1	-3%
CCOC(=O)N1CCN(C(=O)CSCc2nc(-c3ccccc3F)oc2C)CC1	88%
CNC(=O)C1CC(=O)N(Cc2ccc3c(c2)OCO3)C(=Nc2ccc(F)cc2)S1 (centres undefined)	72%
CC(C)(C)SCCNC(=O)CN(c1ccc(F)cc1)S(C)(=O)=O	26%
CC(C)[C@H](NC(=O)OC(C)(C)C)c1nnc(S(=O)(=O)Cc2c(F)cccc2Cl)o1	1.3µM*

Looked up one by one from the entries so far (2):
SMILES	AmpC inh no det
COc1cccc(Cn2nnc(C(=O)Nc3cc(Cl)ccc3OC)c2N)c1	-22%
CCOC(=O)CCc1c(C)c2ccc(O)cc2oc1=O	-12%

(continued)
SMILES	AmpC inh no det
CCC(C)(C)n1nnnc1C(C(C)C)N1CCC(C(N)=O)CC1 (centres undefined)	-2%
O=C(CCc1nc(-c2ccccc2F)no1)NCCN1CCN(Cc2ccccc2)CC1	38%
CC(=O)[C@@H]1CC[C@H]2[C@H]3CC[C@H]4C[C@@H](O)CC[C@]4(C)[C@@H]3CC[C@]12C	10%
CCNC(=O)c1c(N)sc2c1CCCCC2	49%
CC(=O)Nc1nonc1-c1nc2ccccc2n1CC1CC1	10%
CCCn1c(=O)c2[nH]c(-c3ccc(OCC(=O)Nc4ccc(C(C)=O)cc4)cc3)nc2n(CCC)c1=O	4%
Cc1cc(C)n2cc(CSc3ncccc3C(=O)O)nc2n1	-14%
COc1ccc(OC)c(NC(=O)Cn2c(CCC(=O)O)ccc2-c2cccs2)c1	15%
CCOC(=O)C1=C(C)Nc2nc(C)nn2C1c1ccc(C)cc1 (centres undefined)	-4%
CCNc1ncc2nc(-c3ccc(OC)cc3)c(=O)n(C)c2n1	13%
CC(OC(=O)c1cc2sccc2n1C)C(=O)NCc1ccco1 (centres undefined)	-5%
N#Cc1c(N)c(C#N)c(-c2ccc(O)cc2)c2c1CCCC2	-2%
O=c1c2c3c(sc2n2cnnc2n1-c1ccccc1)N(Cc1ccccc1)CCC3	106%
CN(C)c1ncc2nc(-c3ccc(F)cc3)c(=O)n(C)c2n1	-2%
COC(=O)c1ccccc1NC(=O)Cn1nc(C(F)(F)F)c2c1CCC2	56%
Cc1noc(C)c1CSc1nnc(-c2c[nH]c3ccccc23)n1-c1ccc(Cl)cc1	11%
COCCN(CCOC)S(=O)(=O)c1ccc(OC)cc1	10%
COc1ccc(-n2c(Cc3cccn3C)nnc2SCC(=O)Nc2ccc3c(c2)OCO3)cc1	64%
CC(OC(=O)c1ccco1)C(=O)NCc1cccs1 (centres undefined)	-11%
C=CCn1c(-c2cccs2)nc2nc3ccccc3nc21	29%
Cc1nn2cc(-c3ccc(Cl)cc3)nc2s1	-8%
CC(=O)N(c1ccc(C(C)C)cc1)C1C=CS(=O)(=O)C1 (centres undefined)	-5%
Cc1ccc(CS(=O)(=O)CCC(=O)NCCN2CCCCC2C)cc1 (centres undefined)	-8%
CCOC(=O)c1sc(-c2ccccc2)cc1N	-12%
CCOc1ccc(/C(O)=C2/C(=O)C(=O)N(CCOCCO)C2c2cccnc2)cc1 (centres undefined)	6%
O=C(Nc1ccccc1)N1CC2(CCN(C(=O)Oc3ccccc3)CC2)C1	36%
